# Bioassay records as filed in PubChem.
# DUX4 txn inh: inhibitors of DUX4-driven ZSCAN4 reporter expression, primary screen, 293T cells, Gaussia and Italica luciferase. 293T-iDUX4 ZSCAN4-Gaussia luciferase reporter, 24 h; active compounds read low. actives 0.8% (n = 37,000). activity change, negative = inhibition, % (no concentration beside the values). AID 1224904, 2016;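 active = -10% or lower and over 25 points stronger than a control reporter; inconclusive = -10% or lower with a smaller gap; inactive = above -10%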;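 note: 0% = median of neutral control wells and -100% = median of positive control wells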
# DUX4 txn inh difference: further read-out of DUX4 txn inh, marked with its call; Gaussia minus Italica difference, %; measured here: selective DUX4 reporter inhibition;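 worked out from the two reporters; negative = selective loss of the DUX4 reporter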
# DUX4 txn inh control: recorded beside DUX4 txn inh, whose call it bears; activity change, negative = inhibition, %; measured here: Italica tet-on control reporter;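 0 = neutral control and -100 = positive control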
# * = called active by the depositor; u = inconclusive; x = not tested or not shown; & = joins results of further samples.
# Start of the listing, in advance:
no.	structure	DUX4 txn inh	DUX4 txn inh difference	DUX4 txn inh control
1	O=C(C[C@H]1CC[C@H]2[C@@H](COC[C@@H](O)CN2S(=O)(=O)c2cccc(Cl)c2)O1)N1CCCCC1	5	0	5.1
2	COc1ccc(S(=O)(=O)Nc2ccc3c(c2)C(=O)N([C@H](C)CO)C[C@H](C)[C@H](CN(C)C(=O)c2ccncc2)OCCCC[C@@H](C)O3)cc1	2	-4	6.2
3	COCC(=O)N1CC2(CCN(Cc3nccs3)CC2)c2c(n(C)c3cc(OC)ccc23)[C@@H]1CO	9	-2	11
4	C[C@@H](NC(=O)C[C@H]1CC[C@@H]2[C@H](COC[C@H](O)CN2Cc2cc(F)ccc2F)O1)c1ccccc1	6	7	-0.8
5	CCCNC(=O)C[C@H]1CC[C@H]2[C@H](COc3ccc(NC(=O)Nc4c(C)noc4C)cc3C(=O)N2C)O1	-5	-9	3.7

# Results, from the start:
no.	structure	DUX4 txn inh	DUX4 txn inh difference	DUX4 txn inh control
1	O=C(C[C@H]1CC[C@H]2[C@@H](COC[C@@H](O)CN2S(=O)(=O)c2cccc(Cl)c2)O1)N1CCCCC1	5	0	5.1
2	COc1ccc(S(=O)(=O)Nc2ccc3c(c2)C(=O)N([C@H](C)CO)C[C@H](C)[C@H](CN(C)C(=O)c2ccncc2)OCCCC[C@@H](C)O3)cc1	2	-4	6.2
3	COCC(=O)N1CC2(CCN(Cc3nccs3)CC2)c2c(n(C)c3cc(OC)ccc23)[C@@H]1CO	9	-2	11
4	C[C@@H](NC(=O)C[C@H]1CC[C@@H]2[C@H](COC[C@H](O)CN2Cc2cc(F)ccc2F)O1)c1ccccc1	6	7	-0.8
5	CCCNC(=O)C[C@H]1CC[C@H]2[C@H](COc3ccc(NC(=O)Nc4c(C)noc4C)cc3C(=O)N2C)O1	-5	-9	3.7
6	CC(C)NC(=O)N1CC(=O)N2[C@H](CO)[C@@H](c3ccc(/C=C/c4ccccc4)cc3)[C@H]2C1	u	x	x
7	N#Cc1cccc(-c2ccc([C@H]3[C@@H](CO)N4CCCCN(S(=O)(=O)c5ccccc5)C[C@H]34)cc2)c1	u	x	x
8	C[C@H]1CN([C@@H](C)CO)C(=O)c2cccc(NC(=O)C3CCOCC3)c2O[C@@H]1CN(C)C(=O)Nc1cccc2ccccc12	-3	-2	-0.8
9	COCc1cn(CC[C@@H]2CC[C@@H](NC(=O)Nc3c(C)noc3C)[C@@H](CO)O2)nn1	6	7	-0.9
10	Cc1noc(C)c1NC(=O)N(C)C[C@@H]1OCc2cnnn2CCCC(=O)N([C@@H](C)CO)C[C@@H]1C	0	0	0.1
11	O=C([C@H]1N[C@H]2c3ccc(C4=CCCCC4)c(=O)n3C[C@H]2[C@@H]1CO)N1CCC(Cc2ccccc2)CC1	9	17	-8.0
12	CNC[C@@H]1Oc2ccc(NC(=O)Nc3ccc(C(F)(F)F)cc3)cc2CC(=O)N([C@@H](C)CO)C[C@H]1C	1	-4	4.5
13	CN1[C@@H]2c3ccc(C4=CCCC4)c(=O)n3C[C@H]1[C@H](CO)[C@H]2C(=O)NC1Cc2ccccc2C1	0	-1	1.4
14	CCCC#Cc1cnc2c(c1)C(=O)N([C@H](C)CO)C[C@H](C)[C@H](CN(C)C(=O)Nc1cc(F)ccc1F)O2	0	-1	0.9
15	CC=Cc1ccc2n(c1=O)C[C@@H]1[C@@H](CO)[C@H](C(=O)NCCCN(C)C)N(Cc3cocn3)[C@H]21 (mixture of isomers)	3	3	0.1
16	C[C@H](CO)N1C[C@H](C)[C@H](CN(C)C(=O)c2ccc3c(c2)OCO3)Oc2cc(/C=C/c3ccccc3)ccc2S1(=O)=O	4	-1	4.7
17	O=C(C[C@H]1CC[C@H]2[C@@H](COC[C@H](O)CN2C(=O)c2cnccn2)O1)NCc1ccc(Oc2ccccc2)cc1	3	2	0.4
18	CC=Cc1ccc2n(c1=O)C[C@@H]1[C@@H](CO)[C@H](C(=O)NCCC)[C@H]2N1C(=O)C1CCC1 (mixture of isomers)	-6	-13	7.2
19	CNC[C@H]1Oc2ncc(Br)cc2C(=O)N([C@H](C)CO)C[C@H]1C	-4	0	-4.0
20	CO[C@H](CN(C)S(=O)(=O)c1cccc(Cl)c1)[C@@H](C)CN(C(=O)Nc1ccccc1F)[C@H](C)CO	-2	0	-1.7
21	C/C=C/c1ccc2c(c1)O[C@@H](CN(C)CC1CCOCC1)[C@@H](C)CN([C@@H](C)CO)S2(=O)=O	1	-3	3.9
22	CC(C)[C@H]1CC=CC[C@H](C)Oc2ccccc2C(=O)N(C)[C@@H](C)C(=O)N1 (mixture of isomers)	-1	0	-0.9
23	CCC(=O)NC[C@H]1[C@H](c2ccc(-c3cccc(F)c3)cc2)[C@H](CO)N1C(=O)CC	0	-4	4.0
24	O=C(c1cnccn1)N1CC2(C1)[C@@H](c1ccccc1)[C@@H](CO)N2C(=O)c1ccccc1	6	6	0.0
25	COCCNC(=O)C[C@H]1C[C@H]2c3cc(N(C)C)ccc3O[C@H]2[C@@H](CO)O1	-5	-4	-1.3
26	O=C(C[C@@H]1CC[C@H]2[C@@H](COC[C@H](O)CN2C(=O)c2ccccc2)O1)Nc1ccccc1	4	-4	7.2
27	CN1CCN(C(=O)C[C@@H]2CC[C@@H]3[C@H](COC[C@H](O)CN3Cc3cccc(F)c3)O2)CC1	1	3	-2.0
28	CO[C@H]1CN(C)C(=O)c2ccc(NS(C)(=O)=O)cc2OC[C@@H](C)N(C(=O)c2ccc3c(c2)OCO3)C[C@@H]1C	3	2	0.6
29	O=C(CC1CC1)Nc1ccc2c(c1)[C@@H]1C[C@H](CC(=O)NC3CCCCC3)O[C@H](CO)[C@@H]1O2	-1	0	-0.5
30	COCC(=O)N1CC2(C1)CN(Cc1ccccc1F)[C@@H](CO)c1[nH]c3cc(OC)ccc3c12	u	x	x

# Brought forward from above: 2 entries, followed by the next part.
no.	structure	DUX4 txn inh	DUX4 txn inh difference	DUX4 txn inh control
29	O=C(CC1CC1)Nc1ccc2c(c1)[C@@H]1C[C@H](CC(=O)NC3CCCCC3)O[C@H](CO)[C@@H]1O2	-1	0	-0.5
30	COCC(=O)N1CC2(C1)CN(Cc1ccccc1F)[C@@H](CO)c1[nH]c3cc(OC)ccc3c12	u	x	x
31	CN(C)C(=O)[C@@H]1[C@@H](CO)[C@@H]2Cn3c(ccc(-c4ccncc4)c3=O)[C@H]1N2C(=O)NC1CCCC1	2	-1	2.8
32	COc1cccc(-c2ccc(C3[C@H]4CNC[C@@H]3N4Cc3nccs3)cc2)c1 (stereo partly drawn)	-4&12	-9&-1	5.4&13
33	C[C@H](CO)N1C[C@H](C)[C@H](CN(C)Cc2ccc(Cl)c(Cl)c2)Oc2ccc(NC(=O)C3CCCCC3)cc2CC1=O	-2	0	-1.6
34	CCNC(=O)C[C@H]1CC[C@@H]2[C@H](COC[C@@H](O)CN2C(=O)Nc2c(C)noc2C)O1	8	-2	9.6
35	CCC(=O)N1C[C@@H](C)[C@H](OC)CN(C)C(=O)c2cc(NC(=O)NC3CCCC3)ccc2OC[C@@H]1C	1	5	-3.6
36	CC=Cc1ccc2n(c1=O)C[C@H]1[C@H](CO)[C@@H](C(=O)NCC)[C@@H]2N1S(=O)(=O)c1cn(C)cn1 (mixture of isomers)	3	-5	7.6
37	CN1[C@@H]2c3ccc(-c4cccc(F)c4)c(=O)n3C[C@@H]2[C@@H](CO)[C@@H]1C(=O)NC1CCCC1	-3	-7	4.2
38	Cc1ccc(NC(=O)Nc2ccc3c(c2)C(=O)N(C)[C@@H]2CC[C@H](CC(=O)NCC(F)(F)F)O[C@@H]2CO3)cc1	-4	-1	-3.5
39	CC=Cc1ccc2n(c1=O)C[C@@H]1[C@@H](CO)[C@H](C(=O)N[C@@H](C)c3ccccc3)[C@H]2N1CC (mixture of isomers)	-2	-7	5.3
40	CCCNC(=O)N1C[C@H](C)[C@H](OC)CN(C)C(=O)c2cc(NS(=O)(=O)CC(F)(F)F)ccc2OC[C@@H]1C	-1	-5	4.8
41	COc1ccccc1C#Cc1ccc([C@@H]2[C@@H](CO)N3CCCCN(CCC(F)(F)F)C[C@@H]23)cc1	u	x	x
42	CCCNC(=O)N1[C@@H]2CN(C(=O)C3CCOCC3)c3ccccc3[C@@H]2[C@@H]1CO	1	5	-3.7
43	COc1ccccc1-c1cn(CC[C@H]2CC[C@@H](NC(=O)C3CCCCC3)[C@H](CO)O2)nn1	6	11	-5.3
44	CCN1[C@@H]2Cn3c(ccc(-c4cccc(OC)c4)c3=O)[C@H]1[C@@H](C(=O)N(C)C)[C@@H]2CO	6	5	1.8
45	N#C[C@@H]1[C@@H](c2ccc(-c3cncnc3)cc2)[C@H](CO)N1C(=O)C1CCC1	1	-4	4.7
46	C[C@H](CO)N1C[C@H](C)[C@@H](CN(C)C(=O)[C@H](Cc2ccccc2)N(C)C)OCc2ccccc2-c2c(n(C)c3ccccc23)C1=O	4	4	0.1
47	O=C(c1ccccc1F)N1CC2(C1)[C@H](c1ccccc1)[C@H](CO)N2CC1CCCC1	u	x	x
48	CC(C)NC(=O)N1[C@H](CO)[C@@H](c2ccc(C#CC3CC3)cc2)[C@@H]1C#N	3	1	1.8
49	N#C[C@@H]1[C@H](c2ccccc2-c2cccc(F)c2)[C@H](CO)N1C(=O)c1cccnc1	13	9	4.4
50	COCC(=O)N1[C@@H](CO)[C@H](c2ccc(-c3ccccc3)cc2)C12CN(C(C)=O)C2	0	-5	5.0
51	O=C(C[C@H]1CC[C@@H]2[C@H](COC[C@@H](O)CN2C(=O)c2cnccn2)O1)NCc1ccccc1	7	-3	9.6
52	C[C@@H]1CN([C@H](C)CO)C(=O)c2c(c3ccccc3n2C)-c2ccccc2CO[C@H]1CN(C)S(=O)(=O)c1ccccc1F	u	x	x
53	O=C(c1ccccn1)N1CC(=O)N2[C@H](C1)[C@H](c1ccc(-c3cccc(F)c3)cc1)[C@@H]2CO	16	4	12
54	CN1C(=O)c2cc(NC(=O)c3cnccn3)ccc2OC[C@H]2O[C@@H](CC(=O)NC3CCC3)CC[C@@H]21	0	-2	2.0
55	O=C(NC[C@@H]1N[C@@H](CO)[C@H]1c1ccc(-c2cccnc2)cc1)C1CCCC1	2	3	-0.7
56	Cc1ccccc1S(=O)(=O)N1C[C@H](O)COC[C@@H]2O[C@@H](CC(=O)N3CCC(Cc4ccccc4)CC3)CC[C@H]21	-7	-1	-5.9
57	N#C[C@@H]1[C@H](c2ccc(C#CCC3CCCC3)cc2)[C@@H](CO)N1C(=O)c1ccccn1	3	1	1.4
58	CCC(=O)N1CC2(C1)CN(Cc1nccs1)[C@H](CO)c1c2c2ccc(OC)cc2n1C	16	2	15
59	CCCN1[C@@H]2c3ccc(-c4cccnc4)c(=O)n3C[C@@H]2[C@@H](CO)[C@@H]1C(=O)NCCCN1CCOCC1	0	6	-6.6
60	CCCNC(=O)N(C)C[C@@H]1Oc2cc(-c3cccnc3)ccc2S(=O)(=O)N([C@@H](C)CO)C[C@@H]1C	5	1	3.6

# A portion from the list above:
no.	structure	DUX4 txn inh	DUX4 txn inh difference	DUX4 txn inh control
59	CCCN1[C@@H]2c3ccc(-c4cccnc4)c(=O)n3C[C@@H]2[C@@H](CO)[C@@H]1C(=O)NCCCN1CCOCC1	0	6	-6.6
60	CCCNC(=O)N(C)C[C@@H]1Oc2cc(-c3cccnc3)ccc2S(=O)(=O)N([C@@H](C)CO)C[C@@H]1C	5	1	3.6

# Continuation.
no.	structure	DUX4 txn inh	DUX4 txn inh difference	DUX4 txn inh control
61	C[C@@H]1CN([C@@H](C)CO)C(=O)c2cc(N(C)C)ccc2O[C@@H](C)CCCCO[C@@H]1CN(C)Cc1ccc2c(c1)OCO2	0	-1	1.1
62	COc1ccc(C#Cc2ccc([C@@H]3[C@H](CO)N4C(=O)CN(C(C)=O)C[C@@H]34)cc2)cc1	4	8	-4.6
63	O=C(C[C@@H]1C[C@H]2c3cc(NC(=O)CC4CC4)ccc3O[C@H]2[C@H](CO)O1)NCc1cccc(F)c1	-6	-9	2.6
64	Cc1cccc(CN(C)C[C@@H]2Oc3ncc(-c4ccccc4)cc3C(=O)N([C@H](C)CO)C[C@@H]2C)c1	-2	2	-4.9
65	C/C=C/c1ccc([C@@H]2[C@@H](CO)N(C(C)=O)[C@@H]2CN(C)C(=O)c2ccccn2)cc1	-3	-2	-0.1
66	COc1ccc(C(=O)Nc2ccc3c(c2)C(=O)N(C)[C@@H]2CC[C@@H](CC(=O)NCC4CC4)O[C@H]2CO3)cc1	2	-5	7.0
67	COCC(=O)N1CCC2(CC1)CN(C(=O)NC1CCCC1)[C@H](CO)c1c2c2ccc(OC)cc2n1C	10	9	0.5
68	O=C(C[C@@H]1CC[C@H]2[C@@H](COC[C@@H](O)CN2Cc2ccccc2F)O1)NCc1ccccc1F	u	x	x
69	O=C(C[C@@H]1CC[C@@H]2[C@H](COC[C@@H](O)CN2C(=O)c2cnccn2)O1)N1CCN(c2ccccc2)CC1	1	-1	2.5
70	COc1ccccc1NC(=O)N(C)C[C@H]1OCc2cn(nn2)CCCC(=O)N([C@H](C)CO)C[C@H]1C	1	1	0.0
71	CO[C@H]1CN(C)C(=O)c2cc(NC(=O)c3cnccn3)ccc2OC[C@H](C)N(CCc2ccccc2)C[C@@H]1C	u	x	x
72	C[C@H](CO)N1C[C@H](C)[C@@H](CN(C)C(=O)CCC(F)(F)F)OCCCC[C@H](C)Oc2ccc(NC(=O)C3CCCCC3)cc2C1=O	3	0	3.2
73	O=C(C[C@H]1CC[C@@H]2[C@H](COC[C@H](O)CN2C(=O)Nc2ccc(C(F)(F)F)cc2)O1)NCC1CCCCC1	4	-1	4.5
74	COc1ccc(S(=O)(=O)N(C)C[C@H]2OCc3ccccc3-c3ccccc3C(=O)N([C@@H](C)CO)C[C@@H]2C)cc1	4	5	-1.8
75	C[C@H]1CN([C@@H](C)CO)C(=O)c2cc(C#CC(C)(C)O)cnc2O[C@@H]1CN(C)Cc1ccccn1	1	0	0.7
76	CO[C@@H]1CN(C)C(=O)c2cc(NC(=O)c3ccc(F)cc3)ccc2OC[C@H](C)NC[C@H]1C	0	0	0.3

# These rows are one share of the data; the hit share may differ from the screen's.
